Assay outcomes deposited in PubChem BioAssay by National Center for Advancing Translational Sciences (NCATS).
GLA inh pH 4.5: blocks human alpha-galactosidase A at pH 4.5. P06280. purified enzyme, 4-MU-alpha-Gal fluorescence, pH 4.5. activity change, negative = inhibition, % at 105 µM. 230,000 tested, under 10 active. AID 1467; inconclusive = small, poorly fitted or top-dose-only inhibition, or a rising curve; inactive = flat fitted curve, though single readings scatter; no compound was filed as active;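 note: 0% = full activity with enzyme and -100% = basal without enzyme; dose as in the result columns while the protocol names 77 µM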
Target sequence (P06280 whole entry, looked up): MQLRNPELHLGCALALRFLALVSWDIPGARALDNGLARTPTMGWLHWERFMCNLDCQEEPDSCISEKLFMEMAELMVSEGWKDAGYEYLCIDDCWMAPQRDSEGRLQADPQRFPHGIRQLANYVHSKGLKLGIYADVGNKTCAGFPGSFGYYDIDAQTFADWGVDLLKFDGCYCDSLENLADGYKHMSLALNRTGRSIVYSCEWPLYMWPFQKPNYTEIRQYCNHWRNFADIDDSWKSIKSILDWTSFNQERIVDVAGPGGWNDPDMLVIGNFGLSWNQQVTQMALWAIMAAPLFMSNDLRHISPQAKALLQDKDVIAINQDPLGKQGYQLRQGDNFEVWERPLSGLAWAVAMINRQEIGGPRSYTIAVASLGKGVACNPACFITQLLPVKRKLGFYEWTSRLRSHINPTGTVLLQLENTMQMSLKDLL
Rango-impB inh: Rango-importin beta binding inhibition. Q14974. Rango CFP/YFP FRET sensor + importin beta, 45 min. Potency, µM (top dose mostly 92.2 µM), for inactives: top-dose inhibition of complex formation. hit rate 0.031% among 340,000. AID 540263; active = rising FRET ratio curve, often small or poorly fitted; inconclusive = mostly compound fluorescence or quenching in the first reads; inactive = flat curves in all reads;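 note: potency is the fitted concentration of half-maximal effect; 0% = DMSO wells and 100% = buffer wells lacking importin beta; nearly all actives have a fitted effect of over 15% in size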
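FRET biosensor Rango (snurportin 1 IBB between N-terminal EYFP and C-terminal Cerulean), 50 nM in PBS/1 mM DTT/0.02% Tween-20/0.1% BSA, preincubated 5 min RT with compound; 0.125 microM importin beta added, 45 min RT, CFP/YFP FRET ratio read.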
Rango release inh: inhibition of RanGTP-driven Rango-importin beta dissociation; O95149+P62826; Biochemical FRET Rango-importin beta, RanGTP-induced dissociation; Potency, µM (highest dose often 46.1 µM), for inactives: at the highest dose activity change, negative = inhibition; hit rate 0.071% among 340,000; AID 540253; active means falling FRET ratio curve, often poorly fitted, with flat reads before Ran was added; inconclusive means other falling curves, or compound fluorescence or quenching; inactive means flat or rising ratio curve;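 note: potency is the fitted concentration of half-maximal effect; % of control where 0% means no effect; nearly all actives have a fitted effect of over 45% in size; -100% = wells without RanGTP and RCC1; the record marks most hits as doubtful in a second field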
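Recombinant Rango FRET biosensor (EYFP–snurportin 1 IBB–cerulean CFP10) at 0.1 uM premixed with 0.25 uM importin beta in PBS, 1 mM DTT, 0.02% Tween-20, 0.1% BSA. Compound added 5 min; RanGTP-RCC1 (0.6 uM Ran, 2 mM GTP, 0.2 uM RCC1) then triggers release, read at 45 min.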
miR-21 reporter: miR-21 reporter, rising signal | HeLa miR-21 FLuc reporter, luciferase, 48 h | Potency, µM (series often up to 38.3 µM), for the others: at the highest dose reporter change, positive = more light | 340,000 tested, under 10 active | AID 2288; active = well fitted rising curve with a large enough effect; inconclusive = small, poorly fitted or top-dose-only effect; inactive = no such curve, though single readings can be large or run the other way;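 note: % of control where 0% means no effect; miR-21 action dims this reporter so a rising signal means less miR-21 action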
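Using DMEM plus 10% FBS, HeLa miR-21-FLuc cells are incubated with test compounds (final up to about 40uM) for 48 hours; firefly luciferase signal is then imaged following reagent-mediated lysis.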
* marks the source's active call; other numbers are inactive results; & = joins results of further samples. Some of the compounds tested; rates above refer to the full screens.

C/C(CCN1CCc2nc(-c3ccccc3)c(-c3ccccc3)cc2C1)=N\OC[C@@H](C)[C@H](OCc1ccccc1)C(C)C was read as GLA inh pH 4.5 2, Rango-impB inh 0.8%, Rango release inh -12% and miR-21 reporter -13%.
For O=S(=O)(c1ccccc1)N1CCN(C(=S)NCCCN2CCOCC2)CC1 the results were GLA inh pH 4.5 -3, Rango-impB inh -2.7%, Rango release inh -9% and miR-21 reporter -6%.
`CC(=O)Oc1ccc(/C=N\NC(=O)c2cc3c(ccc4ccccc43)o2)cc1` gave Rango-impB inh 0.9%, Rango release inh 1% and miR-21 reporter -3%.
CCn1c(SCC(=O)NCCOC)nc2sc3c(c2c1=O)CCCC3 was read as GLA inh pH 4.5 -5, Rango-impB inh inconclusive, Rango release inh -10% and miR-21 reporter -6%.
CCCc1cc(=O)oc2c(CNc3ccc(OCC)cc3)c(O)ccc12 was read as Rango-impB inh inconclusive, Rango release inh inconclusive and miR-21 reporter 0%.
Screening COc1cc(OC)cc(C(=O)Nc2nc3ccc(S(C)(=O)=O)cc3s2)c1 returned GLA inh pH 4.5 -2, Rango-impB inh -0.3%, Rango release inh 0% and miR-21 reporter -29%.
For COc1ccc(-c2nc(N)n(C(=O)c3ccccc3)n2)cc1 the results were GLA inh pH 4.5 6, Rango-impB inh 5.7%, Rango release inh 2% and miR-21 reporter -8%.
`O=C(Nc1ccc(Cl)c(Cl)c1)Nc1ccc(N2CCCC2)c(S(=O)(=O)Nc2ccccc2Cl)c1` gave GLA inh pH 4.5 -5, Rango-impB inh 3.1%, Rango release inh 2% and miR-21 reporter inconclusive.
C#CCOCCOCCOCCNc1nc(N2CCN(C(=O)[C@H](CCC(=O)O)n3cc(C(N)Cc4ccc(O)cc4)nn3)CC2)nc(N2CCN(C(=O)[C@H](Cc3ccc(O)cc3)n3cc(C(N)CC(C)C)nn3)CC2)n1 (stereo not given in full) was read as GLA inh pH 4.5 -1 and miR-21 reporter 7%.
Screening CC(C)(C)n1nc(Cc2cccc3ccccc23)c2c(N)ncnc21 returned Rango-impB inh 3.2% and Rango release inh -5%.
Screening CCOc1ccc(NC(=O)CN2CCCC2c2cccs2)cc1S(=O)(=O)N1CCCC1 (stereo not given) returned Rango-impB inh 3.7% and Rango release inh -10%.
`S=c1[nH]nc(-c2cc(-c3ccccc3)n[nH]2)n1/N=C/c1cccs1` gave GLA inh pH 4.5 -5, Rango-impB inh 3.3%, Rango release inh 19% and miR-21 reporter -11%.
Screening Cc1ccc(Nc2nc(N)c([N+](=O)[O-])c(N3CCCC(C)C3)n2)cc1C (stereo not given) returned GLA inh pH 4.5 3, Rango-impB inh inconclusive, Rango release inh -18% and miR-21 reporter -7%.
`CCOC(=O)c1c(NC(=O)c2ccc(S(=O)(=O)N(C)CC3CCCO3)cc2)sc2c1CC(C)(C)NC2(C)C` (stereo not given) gave Rango-impB inh 4.0%, Rango release inh -18% and miR-21 reporter -1%.
For Cn1c(=O)c2c(nc(Br)n2C)n(C)c1=O the results were GLA inh pH 4.5 7, Rango-impB inh 9.1%, Rango release inh 1% and miR-21 reporter 1%.
`CN(C)c1ccc(-c2cccc(C3CC=CC4C3C(=O)N(Cc3ccccc3)C4c3ccc4ccccc4c3)c2)cc1` (stereo not given) gave GLA inh pH 4.5 -18, Rango-impB inh -2.9%, Rango release inh 3% and miR-21 reporter -2%.
For CCOC(=O)C1=C(Nc2ccccc2)CC(C)(O)C(C(=O)OCC)C1c1ccc(Cl)cc1 (stereo not given) the results were GLA inh pH 4.5 -7, Rango-impB inh 0.0%&-3.3%, Rango release inh -12%&-10% and miR-21 reporter -5%.
Screening Cn1nc(-c2ccc(C(=O)Nc3cccnc3)cc2)c2ccccc2c1=O returned GLA inh pH 4.5 -4, Rango-impB inh -2.9%, Rango release inh 5% and miR-21 reporter -2%.
COCCCNC(=O)C1CC(=O)OC1c1ccc(OC)c(OC)c1 (stereo not given) was read as GLA inh pH 4.5 8, Rango-impB inh -1.0%, Rango release inh -10% and miR-21 reporter 0%.
Screening Cc1ccccc1OCC(O)CN1CCN(c2ccc(Cl)cc2)CC1 (stereo not given) returned GLA inh pH 4.5 -10, Rango-impB inh -3.0%, Rango release inh -5% and miR-21 reporter -9%.

Quoted at random: 4 records from the list, in no set order.
`CC(=O)Oc1ccc(/C=N\NC(=O)c2cc3c(ccc4ccccc43)o2)cc1` gave Rango-impB inh 0.9%, Rango release inh 1% and miR-21 reporter -3%.
CCn1c(SCC(=O)NCCOC)nc2sc3c(c2c1=O)CCCC3 was read as GLA inh pH 4.5 -5, Rango-impB inh inconclusive, Rango release inh -10% and miR-21 reporter -6%.
Screening COc1cc(OC)cc(C(=O)Nc2nc3ccc(S(C)(=O)=O)cc3s2)c1 returned GLA inh pH 4.5 -2, Rango-impB inh -0.3%, Rango release inh 0% and miR-21 reporter -29%.
`CN(C)c1ccc(-c2cccc(C3CC=CC4C3C(=O)N(Cc3ccccc3)C4c3ccc4ccccc4c3)c2)cc1` (stereo not given) gave GLA inh pH 4.5 -18, Rango-impB inh -2.9%, Rango release inh 3% and miR-21 reporter -2%.

The list goes on.
`COc1ccc(N2CCN(CCCNC(=O)c3cc4sccc4n3C)CC2)cc1` gave GLA inh pH 4.5 inconclusive, Rango-impB inh 2.3%, Rango release inh 4% and miR-21 reporter 0%.
For Cc1nc(N)c(C#N)c(-c2cccnc2)c1C the results were GLA inh pH 4.5 5, Rango-impB inh -2.5%, Rango release inh 0% and miR-21 reporter 15%.
Screening Cc1cccc(NC(=O)COc2ccc(/C=N\n3cnnc3)cc2)c1 returned GLA inh pH 4.5 10, Rango-impB inh 0.9%, Rango release inh 14% and miR-21 reporter -22%.
CCOC(=O)Cc1csc(N/N=C/c2ccc(Cl)cc2)n1 was read as GLA inh pH 4.5 -7, Rango-impB inh 0.8%, Rango release inh 1% and miR-21 reporter 4%.
Screening O=C(CNC(=O)c1sc2ccccc2c1Cl)OCc1ccccc1 returned Rango-impB inh 1.3%, Rango release inh -6% and miR-21 reporter 0%.
Screening CC1CC(C)CN(CCCNC(=O)CCC(=O)N2CCOc3ccccc32)C1 (stereo not given) returned Rango-impB inh 3.7%, Rango release inh 16% and miR-21 reporter -4%.
`CC(C)CCNC(=O)C1CC(c2ccccc2C(F)(F)F)=NO1` (stereo not given) gave GLA inh pH 4.5 -2, Rango-impB inh -2.7%, Rango release inh 1% and miR-21 reporter 8%.
`CC(Oc1ccc(Cl)cc1Cl)c1nc(-c2ccccn2)no1` (stereo not given) gave GLA inh pH 4.5 -5, Rango-impB inh 0.6%, Rango release inh 0% and miR-21 reporter -61%.
`Cc1ccc(CCNC(=O)C2CCCN(c3ncnc4c3nc3n4CCCCC3)C2)cc1` (stereo not given) gave Rango-impB inh 0.2%, Rango release inh -1% and miR-21 reporter -5%.
Screening COc1cccc(-c2nc(-c3ccccn3)no2)c1OC returned GLA inh pH 4.5 -12, Rango-impB inh 1.2%, Rango release inh 16% and miR-21 reporter -44%.
For Cc1ccc(S(=O)(=O)N(C)CCCC(=O)NC(C)(C)C)cc1 the results were GLA inh pH 4.5 -7, Rango-impB inh -0.4%, Rango release inh -6% and miR-21 reporter -1%.
Screening Cc1cc(C)c2nc(SCC(=O)Nc3cc(C)on3)c(C#N)cc2c1 returned Rango-impB inh inconclusive, Rango release inh -20% and miR-21 reporter -3%.
`O=C(NCc1nnnn1-c1ccc(F)c(F)c1)c1ccc(S(=O)(=O)N2CCOCC2)cc1` gave Rango-impB inh -1.1% and Rango release inh 14%.
Screening S=C(Nc1cc(Cl)cc(Cl)c1)N1CCCC1 returned Rango-impB inh -2.7%, Rango release inh 4% and miR-21 reporter -7%.
Cc1ccc2c(=O)cc(C(=O)NCc3ccccc3)oc2c1C was read as Rango-impB inh 0.3%, Rango release inh 9% and miR-21 reporter 0%.
Screening Cn1c(=O)c2c(nc(SCCN3CCOCC3)n2Cc2ccc(F)cc2)n(C)c1=O returned GLA inh pH 4.5 -9, Rango-impB inh 0.2%, Rango release inh 2% and miR-21 reporter -8%.
COc1cc(C(=O)NNC(=S)Nc2ccc(S(N)(=O)=O)cc2)cc(OC)c1OC was read as GLA inh pH 4.5 -3, Rango-impB inh 4.6%, Rango release inh -8% and miR-21 reporter 17%.
For CCN(CC(=O)Nc1c(F)cccc1F)C(=O)CCCc1cccs1 the results were Rango-impB inh -2.7% and Rango release inh -3%.
For O=C(CCc1nc(-c2ccccc2F)no1)NC1CCCCC1 the results were GLA inh pH 4.5 -11, Rango-impB inh 1.0%, Rango release inh inconclusive and miR-21 reporter 1%.
Screening COc1cccc(CN(C)C(=O)CN2C(=O)NC(c3ccccc3)(c3ccccc3)C2=O)c1OC returned Rango-impB inh -1.8% and Rango release inh 9%.
CC(C)n1cc(/C=C2/SC(=O)N(CC(=O)Nc3ccc4c(c3)OCO4)C2=O)c2ccccc21 was read as GLA inh pH 4.5 2, Rango-impB inh inconclusive, Rango release inh inconclusive and miR-21 reporter 0%.
Cc1ccncc1C(N)=O was read as GLA inh pH 4.5 3, Rango-impB inh -0.6%, Rango release inh -2% and miR-21 reporter -1%.
For C/C(=N\Nc1cc(-c2ccccc2)nc(-c2ccccc2)n1)c1ccc(O)c(C)c1 the results were GLA inh pH 4.5 -5, Rango-impB inh -3.3%, Rango release inh -5% and miR-21 reporter -18%.
For COc1ccc(CNC(=O)CN(C(=O)CCC(=O)Nc2ccccn2)c2ccccc2OC)cc1 the results were GLA inh pH 4.5 4, Rango-impB inh -0.3%, Rango release inh -14% and miR-21 reporter -2%.
`CC(=O)Nc1nc(C)c(-c2csc(Nc3cccc([N+](=O)[O-])c3)n2)s1` gave GLA inh pH 4.5 -1, Rango-impB inh -5.6%, Rango release inh 0% and miR-21 reporter -8%.
Screening CCN(CC(=O)NCc1ccc(Cl)cc1)C(=O)CSc1cc(C)ccc1C returned Rango-impB inh 0.0% and Rango release inh 8%.
CC(C)c1ccc(CN2CC(C(=O)Nc3ccccc3)CC2=O)cc1 (stereo not given) was read as GLA inh pH 4.5 -8, Rango-impB inh 2.8%, Rango release inh 16% and miR-21 reporter -4%.
Screening COCCN(Cc1ccco1)C(=O)C1CCCN(c2ncnc3c2nc2n3CCCCC2)C1 (stereo not given) returned Rango-impB inh -1.9%, Rango release inh -14% and miR-21 reporter 1%.
`Cc1c(C)c2ccc(OCC(=O)N3CCN(c4ccc(F)cc4)CC3)c(C)c2oc1=O` gave Rango-impB inh -3.9%, Rango release inh 5% and miR-21 reporter -3%.
COc1cc(-c2c(-c3cc(OC)c(OC)c(OC)c3)noc2C)ccc1F was read as Rango-impB inh -0.4%, Rango release inh -3% and miR-21 reporter 16%.
Screening Cn1c(=O)c2c(nc(NCc3ccco3)n2CC(O)CO)n(C)c1=O (stereo not given) returned GLA inh pH 4.5 6, Rango-impB inh 0.0%, Rango release inh -1% and miR-21 reporter -4%.
COc1ccccc1NC(=O)CC1CCCC1 was read as Rango-impB inh -1.9%, Rango release inh 5% and miR-21 reporter -11%.
Screening CCOc1ccc(Cn2nnc(C(=O)Nc3cc(OC)cc(OC)c3)c2N)cc1 returned GLA inh pH 4.5 -3, Rango-impB inh -1.0%, Rango release inh 10% and miR-21 reporter -35%.
CCOn1c(SC(C)C)nc2ccccc2c1=O was read as GLA inh pH 4.5 5, Rango-impB inh 0.6%, Rango release inh 18% and miR-21 reporter 2%.
Screening Cn1nc(-c2ccc(N3CCOCC3)c(NS(=O)(=O)c3ccc(Cl)cc3)c2)c2ccccc2c1=O returned GLA inh pH 4.5 0, Rango-impB inh 2.8%, Rango release inh -7% and miR-21 reporter -9%.
For Cc1ccc(NC(=O)C(C)OC(=O)CSc2ccccc2)cc1 (stereo not given) the results were Rango-impB inh -2.5% and Rango release inh 8%.
`COC(C(=O)Nc1ccc(Cl)cc1C)c1ccccc1` (stereo not given) gave GLA inh pH 4.5 3, Rango-impB inh -1.5%, Rango release inh -1% and miR-21 reporter -6%.
For CCN(CC)c1ccc(NC(=O)CSc2nnc(N)s2)cc1C the results were GLA inh pH 4.5 1, Rango-impB inh 4.8%, Rango release inh 10% and miR-21 reporter 7%.
